From PubChem
HIV Env fusion = blocks HIV Env-driven cell-cell fusion; HeLa-JRFL Env/CEM21 cell fusion, luciferase; inhibition, % at 12.3 µM; hit rate 1.1% among 360,000; AID 651610;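 active = mean replicate inhibition score of at least 50 and every replicate individually at or above 50; inconclusive = only one of the two criteria met; inactive = mean below 50 and not all replicates reaching 50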;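 also: 0% = plate neutral controls and 100% = maraviroc near 300 nM; one replicate is shown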
MT1-MMP act inh = MT1-MMP (human) activation inhibition; hit rate 0.061% among 360,000; AID 651647; HT1080 RFP-PRO-GFP cells, GFP/RFP ratio fluorescence, overnight; percent of plate control window, DMSO zero; GFP/RFP ratio change, % at 20 µM;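 active = GFP/RFP ratio change of at least 30% with cell ATP level not reduced by more than half and red fluorescence within 50% of control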; also: strong numbers were not always called active
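Test system: HT1080 RFP-PRO-GFP cells; Benchmarks: DMSO and RFP-L50D-GFP cell wells; Timing: cells overnight before dosing, compound overnight, 37 °C, 5% CO2; Compound: one 20 µM compound dose with 1% DMSO; Read-out: GFP/RFP fluorescence ratio.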
MT1-MMP act inh RFP = also measured in MT1-MMP act inh; calls as there; RFP signal change, %; measured here: RFP expression control read;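 0 = vehicle wells; hits needed this value within 50% of zero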
Active calls of the source: *; ? = inconclusive; [ ] = dose if it differs, or a comment. Only part of the results is shown, so the mix of outcomes need not match the whole.

SMILES	HIV Env fusion	MT1-MMP act inh	MT1-MMP act inh RFP
COc1ccc(C2=Nc3ccccc3N(C(=O)c3cc(Cl)cc(Cl)c3)C2C(=O)NCc2ccccc2)cc1 (stereo unspecified)	-26	-6	-8
CCCCCCCCCCCCCCC(O)C[N+](C)(CCO)CCO (stereo unspecified)	-22	-3	-13
C[C@H](c1ccccc1)N1C[C@H](COCc2ccccc2)Oc2cc(N3CC[C@@H](O)C3)ccc2S1(=O)=O	-10	-5	-13
O=C1Nc2ccccc2-c2nnnn2C1N1CCCC1 (stereo unspecified)	19	-3	4
COc1ccc(NC(=O)N[C@H]2CC[C@@H](CC(=O)NC3CCC3)O[C@@H]2CO)cc1	0[16.7 µM]	0	5
COC(=O)C1(C(=O)OC)C[C@H](c2ccccc2)N(Cc2ccccc2OC)[C@@H]1c1ccccc1	84*	-9	-15
O=C(CCSC1=NCCCN1)c1ccc(F)cc1	-19	-3	3
O=C(Nc1ccc2ccccc2c1)C(c1ccccc1F)n1c(=O)c(-c2cc3ccccc3[nH]2)nc2ccccc21 (stereo unspecified)	-10	-11	-12
COC(=O)C1=CN(c2ccc(C(C)(C)C)cc2)C(N)=C(C#N)C1c1cccc2ccccc12 (stereo unspecified)	7	-7	-11
COc1cccc(C(C(=O)NC2CCCC2)N2CCN(c3ncccc3C#N)CC2)c1OC (stereo unspecified)	0	3	4
O=C1c2cc(O)c(O)cc2OC(c2ccc(O)c(O)c2)C1O (stereo unspecified)	2	-7	-9
CC[N+]1(C)CCC(O)(/C=C/c2ccccc2)C(C(=O)/C=C/c2ccccc2)C1 (stereo unspecified)	-62	4	1
O=C(NCc1ccncc1)[C@@H]1CCCN1C(=O)[C@@H]1CCCN1	16	1	7
COC(=O)C(C#N)(CCC(=O)c1ccccc1)CCC(=O)c1ccccc1	1	-1	5
COc1ccccc1NC(=O)CN(Cc1ccco1)C(=O)c1ccc(N2CCCC2=O)cc1	?	2	2
O=C(NCC(=O)N1CCCC1)NN=Cc1ccccc1O	-13	5	8
O=C(CCC1CCN(Cc2nccs2)CC1)Nc1ccccc1	-19	1	2
Cc1ccccc1CN1C(=O)CSCC1(C)C(=O)Nc1ccc2c(c1)OCCO2 (stereo unspecified)	2	-3	3
CCCCNC(=O)c1nc(-c2cccnc2OC)oc1-c1ccc(Cl)cc1	45	-1	-4
C[C@H]1COc2cccc(N3CCSCC3)c2S(=O)(=O)N1	15	2	1

Some of the entries so far, with values under each structure:
Every second line gives: HIV Env fusion, MT1-MMP act inh, MT1-MMP act inh RFP
> CCCCCCCCCCCCCCC(O)C[N+](C)(CCO)CCO (stereo unspecified)
 : -22, -3, -13
> C[C@H](c1ccccc1)N1C[C@H](COCc2ccccc2)Oc2cc(N3CC[C@@H](O)C3)ccc2S1(=O)=O
 : -10, -5, -13
> O=C1Nc2ccccc2-c2nnnn2C1N1CCCC1 (stereo unspecified)
 : 19, -3, 4
> COc1ccc(NC(=O)N[C@H]2CC[C@@H](CC(=O)NC3CCC3)O[C@@H]2CO)cc1
 : 0[16.7 µM], 0, 5
> COC(=O)C1(C(=O)OC)C[C@H](c2ccccc2)N(Cc2ccccc2OC)[C@@H]1c1ccccc1
 : 84*, -9, -15
> O=C(CCSC1=NCCCN1)c1ccc(F)cc1
 : -19, -3, 3
> O=C(Nc1ccc2ccccc2c1)C(c1ccccc1F)n1c(=O)c(-c2cc3ccccc3[nH]2)nc2ccccc21 (stereo unspecified)
 : -10, -11, -12
> COC(=O)C1=CN(c2ccc(C(C)(C)C)cc2)C(N)=C(C#N)C1c1cccc2ccccc12 (stereo unspecified)
 : 7, -7, -11
> COc1cccc(C(C(=O)NC2CCCC2)N2CCN(c3ncccc3C#N)CC2)c1OC (stereo unspecified)
 : 0, 3, 4
> O=C1c2cc(O)c(O)cc2OC(c2ccc(O)c(O)c2)C1O (stereo unspecified)
 : 2, -7, -9
> CC[N+]1(C)CCC(O)(/C=C/c2ccccc2)C(C(=O)/C=C/c2ccccc2)C1 (stereo unspecified)
 : -62, 4, 1
> O=C(NCc1ccncc1)[C@@H]1CCCN1C(=O)[C@@H]1CCCN1
 : 16, 1, 7
> COC(=O)C(C#N)(CCC(=O)c1ccccc1)CCC(=O)c1ccccc1
 : 1, -1, 5
> COc1ccccc1NC(=O)CN(Cc1ccco1)C(=O)c1ccc(N2CCCC2=O)cc1
 : ?, 2, 2
> O=C(NCC(=O)N1CCCC1)NN=Cc1ccccc1O
 : -13, 5, 8
> O=C(CCC1CCN(Cc2nccs2)CC1)Nc1ccccc1
 : -19, 1, 2
> Cc1ccccc1CN1C(=O)CSCC1(C)C(=O)Nc1ccc2c(c1)OCCO2 (stereo unspecified)
 : 2, -3, 3
> CCCCNC(=O)c1nc(-c2cccnc2OC)oc1-c1ccc(Cl)cc1
 : 45, -1, -4

(list continues)
SMILES	HIV Env fusion	MT1-MMP act inh	MT1-MMP act inh RFP
COc1ccc(CN2C(=O)CSCC2(C)C(=O)NCc2ccccc2)cc1 (stereo unspecified)	-11	5	-2
Cc1cc(C)n2c(NC3CCCCC3)c(-c3ccccn3)nc2n1	15	6	0
CN(C)c1ncnc2c1ncn2[C@H]1CN(CCN2CCOCC2)C[C@@H](CO)O1	-18	2	5
COc1ccccc1Cc1c(-c2ccccc2)nc2cc(C)c(Br)c(C)n12	-22	4	2
Cc1cccc(C)c1NC(=O)C1C(c2ccc3c(c2)OCO3)=Nc2ccccc2N1C(=O)c1cccc(C(F)(F)F)c1 (stereo unspecified)	-19	-13	-11
Cc1cc2nc(-c3cccc(Cl)c3)c(CC3CCCCC3)n2c(C)c1Br	-11	0	-6
CC(=O)N1Cc2cc(C(=O)NCC(F)(F)F)nc(-c3cccc(-c4cccnc4)c3)c2[C@@H]1CCO	-284[16.7 µM]	3	-9
CC(C)C[C@H]1CN(CCCC[C@@H]2CNC(=O)C(=O)N2Cc2ccccc2)C(=O)C(=O)N1CCc1ccc(O)cc1	-30	5	3
C[C@H](O)[C@@H]1C(=O)N2CCc3c([nH]c4ccccc34)[C@@H]2C[C@@H]1N(C)C(=O)Nc1ccccc1	-57	-1	-2
O=C(NC1CCCCC1)C1c2ccccc2OCC(=O)N1Cc1ccco1 (stereo unspecified)	3	-1	3
O=c1[nH][nH]c2c1C(c1ccc(F)cc1)OC(CCc1ccccc1)C2 (stereo unspecified)	14	6	2
CCCc1c(-c2ccc(F)cc2F)ncn1Cc1cccc(-c2ccccc2)c1	3	-2	-32
COc1ccccc1C(=O)NCC[N+](C)(C)C	24	1	4
S=C(NC1CCCCC1)NN1CCCCCC1	8	-1	-1
O=C(c1cc(Cl)cc(Cl)c1)N1CCC(=O)N([C@H](COCc2ccccc2)Cc2ccccc2)CC1	31	-7	-10
Cn1c(=S)c2[nH]c(SCC3CCCO3)nc2n(C)c1=O (stereo unspecified)	21	2	2
CC1(c2nnnn2-c2ccc3c(c2)OCCO3)CCC(=O)N1Cc1cccnc1 (stereo unspecified)	-3	4	5
COc1ccc([C@H]2C[C@@H](O)C[C@@H](CCn3cc(-c4ccccc4)nn3)O2)cc1	-32	6	4
O=C(NN=Cc1ccccc1Cl)c1cccc2ccccc12	3	-3	-1
Cc1cccc(C)c1NC(=S)NC(=O)c1cccc(Cl)c1	-14	-1	-4
COC(=O)[C@@]12C[C@@H](CC(=O)N3CCOCC3)C(=O)N(Cc3ccc4c(c3)OCO4)C1=CCC(C)(C)C2	-10	3	2
O=C(NC1CCCCC1)NS(=O)(=O)c1ccc2c(c1)CCC2	-136	3	5
O=C(NCCN1CCN(c2cccc(Cl)c2)CC1)c1cccn2c(=O)c3ccccc3nc12	4	4	2
COc1ccc(N2C(=O)c3ccccc3NC(=O)C2C(=O)Nc2ccc(N3CCOCC3)cc2)cc1 (stereo unspecified)	7	0	5
COCCN1C(=O)CSCC1(C)C(=O)Nc1ccc2c(c1)OCCO2 (stereo unspecified)	18	3	5
COc1ccccc1Cc1c(-c2ccc(Cl)cc2)nc2c(Cl)cc(C(F)(F)F)cn12	8	0	-1
COC(=O)[C@@]1(Cc2ccc(F)cc2)[C@H]2c3cc(C(=O)N(C)C)n(CCN4CCOCC4)c3C[C@H]2CN1C(=O)c1ccccc1	-27	0	3
Cc1ccccc1S(=O)(=O)N1C(c2ccc(Cl)c(Cl)c2)CC=C(C(=O)O)C1c1cccc(Br)c1 (stereo unspecified)	24	-2	1
Nc1nc2ncccn2c1-c1ccc(F)cc1	25	-4	-1
CCCCN1C(=O)C(CC(=O)NCc2ccco2)CC(C(=O)N2CCCCCC2)=C1C (stereo unspecified)	0	13	9
COc1ccc(-c2nc(CN3CCC(C(=O)NC4CCCc5ccccc54)CC3)c(C)o2)cc1OC (stereo unspecified)	-92	-2	-5
CC(=O)Nc1cccc(OCCOc2cccc([N+](=O)[O-])c2)c1	28	2	-1
Cc1ccc(C(=Cc2ccc([N+](=O)[O-])cc2)C(=O)O)cc1	-15	1	0
CCCCNC(=O)C1C(c2ccc(C(F)(F)F)cc2)=Nc2ccccc2N1C(=O)c1cccc(C(F)(F)F)c1 (stereo unspecified)	26	-5	-9
FC(F)(F)c1ccccc1Cc1c(-c2ccc(Cl)cc2)nc2c3ccccc3ccn12	10	2	3
O=c1cc(O)cc2n1CCC2	5	1	3
Cc1ccc(Cn2cc(CN3CC(N4CCN(Cc5cccc(C)c5)CC4)CS3(=O)=O)nn2)cc1 (stereo unspecified)	3	7	-9
CC1=C(C(=O)N2CCCCCC2)CC(CC(=O)NCCN2CCOCC2)C(=O)N1CCC1=CCCCC1 (stereo unspecified)	-8	2	4
O=C1CCCC[C@@H](CO)[C@H](O)C[C@H](c2ccccc2)O1	-3	1	3
CC(C)CNC(=O)CSc1ccc(S(=O)(=O)N(C)C2CCCCC2)cn1	11	-2	-9
COCC(C)n1c(C)cc(C(=O)CSc2nnc(-c3ccco3)o2)c1C (stereo unspecified)	-20	3	-2
COc1ccccc1CNc1nc(NC(C)C)nc2ccsc12	6	5	-10
O=S1(=O)CC(N2CCCCC2)CN1Cc1cn(Cc2ccccc2)nn1 (stereo unspecified)	-8	4	4
COC(=O)C1=C/CCCN(C(c2ccccc2)c2ccccc2)/C=C\1C(=O)OC	3	-2	-4
COC(=O)C[C@H]1CC[C@@H](NS(=O)(=O)c2ccccc2)[C@@H](CO)O1	-24	0	7
COc1ccc(Cl)cc1C=CC=NNS(=O)(=O)c1ccc(C)cc1	10	-9	1
CCOC1CCCc2oc(-c3ccc(OC)cc3)c(C(=O)NCCCCO)c21 (stereo unspecified)	1	3	7
O=C(CN1c2cccc3cccc(c23)S1(=O)=O)N1CCN(c2ccc(F)cc2)CC1	-13	0	-4
Cc1[nH]c2ccccc2c1C(=O)c1cc([C@H](NC(=O)OC(C)(C)C)C(C)C)sc1N	-4	-18	-19
CC(C)(C)C1CCN2CCCC(c3ccccc3)(C1)C2=O (stereo unspecified)	-9	-1	5
CSCCC(NS(=O)(=O)Cc1ccccc1)C(=O)NNc1ccccc1 (stereo unspecified)	33	-3	0
CN1CCN(C(=O)c2ccc(NC(=O)c3ccc(Br)o3)cc2)CC1	9	9	7
CC(C)[C@H](NC(=O)OC(C)(C)C)c1cc(C(=O)N2CCOCC2)c(N)s1	-14	3	5
CC(=NO)c1ccc2c(c1)Cc1cc([N+](=O)[O-])ccc1-2	24	2	0
N#CC1(Nc2ccc(-c3ccc(Cl)cc3)cc2)CCCC1	-50	6	4
O=C(NCc1ccccc1)c1nc(-c2c(F)cccc2F)oc1-c1ccccc1	-6	-4	-3
Cc1nnc(NC(=O)c2ccc3nccnc3c2)s1	-16	3	0
COCCN1C(=O)c2ccccc2C1c1nnnn1-c1ccc2c(c1)OCCO2 (stereo unspecified)	?	4	4
CC(=O)OC1C=CCC2C(=O)c3cccc(O)c3C(O)C12 (stereo unspecified)	5	-4	3
O=S1(=O)CC(N2CCCCC2)CN1Cc1cn(Cc2ccc(C(F)(F)F)cc2)nn1 (stereo unspecified)	-12	3	4

Later entries.
SMILES	HIV Env fusion	MT1-MMP act inh	MT1-MMP act inh RFP
COc1ccc(NC(=O)C(c2ccncc2)n2c(=O)c(-c3cc4ccccc4[nH]3)nc3ccccc32)cc1 (stereo unspecified)	22	-8	-7
NC(=O)c1c(N)[nH]c(C(=O)c2ccccc2)c1-c1ccccc1Br	8	1	0
O=C1O[C@@H](c2ccccc2)C[C@@H](O)[C@H](O)CCc2ccccc21	2	5	3
Cc1cccc(C)c1NC(=O)C1c2ccccc2OCC(=O)N1Cc1cccnc1 (stereo unspecified)	4	3	4
O=c1c(-c2cc3ccccc3[nH]2)nc2ccccc2n1C(CCc1ccccc1)c1nc2ccccc2[nH]1 (stereo unspecified)	6	-10	-8
Cc1cccc(C)c1-n1nnnc1-c1nc2ccccc2[nH]c1=O	16	0	1
COc1ccc(CN2C(=O)CCC2(C)c2nnnn2-c2c(C)cccc2C)cc1 (stereo unspecified)	-55	4	4
COC(=O)c1ccc2nc(-c3cccc(Cl)c3)c(Cc3ccccc3)n2c1	-4	-7	-12
COC(=O)c1ccc2nc(-c3ccc(Cl)cc3)c(Cc3cccc(Cl)c3)n2c1	27	-4	-6
CN(C)CCN1CCN(C2CN(Cc3cn(Cc4ccc(F)cc4)nn3)S(=O)(=O)C2)CC1 (stereo unspecified)	-11	4	6
